Assay outcomes from PubChem BioAssay.
A1 inh – blocks A1 activity | caspase activation, % (test concentration not listed) | 21,000 compounds, 0.51% hits | AID 2241 | MEF A1-2A-BIM cells, caspase-Glo luminescence, 3 h; percent of clofoctol signal, DMSO as zero;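 active = most replicate scores above 10, or exactly half above 10 with mean activity above 10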;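 note: effector caspase 3 and 7 activity cleaving a DEVD luciferin substrate; 50 nL library stock added to about 30 µL; numbers are from one replicate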
BJeLR viability – lowers viability of BJeLR cells. BJeLR fibroblasts viability, CellTiterGlo ATP luminescence, 48 h; HRASV12, hTERT and SV40 LT/ST transformed. viability loss activity score, % (test concentration not listed). 30,000 compounds, 0.64% hits; in the data active = viability loss activity score above about 50%; about a fifth of its hits are not listed in these tables;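 note: higher score means fewer live cells and less ATP luminescence; stock transfer was 50 or 100 nL into about 30 µL; 0% = vehicle wells and 100% = a reference killing control; one replicate is shown; the record names a cut of 85%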
* = called active by the depositor; . = not tested or not shown. These rows are one share of the data, so the mix of outcomes need not match the whole.

SMILES | A1 inh | BJeLR viability
Cc1ccc(S(=O)(=O)Nc2cccc3c2O[C@@H](CN(C)C(=O)Nc2ccc4c(c2)OCO4)[C@@H](C)CN([C@@H](C)CO)C3=O)cc1 | . | -5.8
Cc1noc(C)c1NC(=O)N(C)C[C@H]1Oc2c(NC(=O)Nc3ccc(F)cc3)cccc2C(=O)N([C@@H](C)CO)C[C@H]1C | . | 3.2
CCCc1cc(=O)oc2cc(OC(C(=O)OCC)c3ccccc3)c(Cl)cc12 (stereo not drawn) | -0.9 | 3.7
O=C(c1cc(-c2ccco2)on1)N(C1CCCCC1)C1CCCCC1 | . | 5.5
COC(=O)C[C@H]1C(C)(C)C2(O)OC34CC2C(=O)[C@]1(C)C3CC[C@]1(C)C4=CC(=O)O[C@H]1c1ccoc1 (stereo partly drawn) | 0.2 | -5.2
C[C@@H]1CN([C@H](C)CO)C(=O)c2cc(NC(=O)NC3CCCCC3)ccc2O[C@H]1CN(C)S(=O)(=O)c1ccccc1 | 0.5 | 1.0
CC(=O)Nc1c(C(=O)O)oc2ccc(Br)cc12 | 0.2 | -9.8
C[C@H]1CN([C@@H](C)CO)C(=O)c2cc(NC(=O)C3CC3)ccc2O[C@@H]1CN(C)Cc1ccc(C(=O)O)cc1 | -1.0 | 1.8
O=S1(=O)CC(N2CCCC2)c2ccccc21 (stereo not drawn) | -0.3 | -6.1
COc1ccc(NC(=O)Nc2ccc3c(c2)C(=O)N([C@@H](C)CO)C[C@H](C)[C@@H](CN(C)S(=O)(=O)c2ccccc2)O3)cc1 | -0.2 | 2.7
C[C@@H]1CN([C@H](C)CO)C(=O)c2cc(NS(=O)(=O)c3cccs3)ccc2O[C@@H]1CN(C)S(=O)(=O)c1cn(C)cn1 | 0.1 | 3.0
Cc1ccc(S(=O)(=O)N(C)C[C@H]2Oc3ccc(NC(=O)CCCCCC(=O)Nc4ccccc4N)cc3C(=O)N([C@@H](C)CO)C[C@H]2C)cc1 | . | -2.3
O=C(CCc1ccccc1)Nc1ccc(-c2nc3ccccc3o2)cc1 | -3.1 | 4.5
CC(C)c1ccc(NC(=O)c2ccc(NS(=O)(=O)c3cccs3)cc2)cc1 | . | 11.3
CC(C)NC(=O)N(C)C[C@H]1Oc2c(NS(=O)(=O)c3cn(C)cn3)cccc2C(=O)N([C@H](C)CO)C[C@@H]1C | . | 3.6
C[C@@H]1CN([C@H](C)CO)C(=O)c2cccc(NC(=O)Nc3ccc4c(c3)OCO4)c2O[C@@H]1CN(C)C | . | 2.2
CC(C)C(NC(=O)C1CCCCC1)C(=O)N1CCN(c2ccccn2)CC1 (stereo not drawn) | . | -1.8
C[C@@H]1CN([C@H](C)CO)C(=O)c2cccc(NC(=O)Nc3ccc(F)cc3)c2O[C@@H]1CN(C)C(=O)Nc1ccc(C(F)(F)F)cc1 | . | 0.8
Cc1noc(C)c1S(=O)(=O)Nc1ccc2c(c1)C(=O)N([C@@H](C)CO)C[C@@H](C)[C@H](CN(C)Cc1ccncc1)O2 | -0.1 | 0.9
C[C@H]1CN([C@@H](C)CO)C(=O)c2cc(NC(=O)Nc3cccc4ccccc34)ccc2O[C@@H]1CN(C)Cc1ccncc1 | 0.5 | -1.2
c1ccc(CN(Cc2ccccc2)c2c3c(nc4ncnn24)CCC3)cc1 | 0.6 | 0.2
COc1ccc(S(=O)(=O)N(C)C[C@@H]2Oc3ccc(N(C)C)cc3C(=O)N([C@@H](C)CO)C[C@H]2C)cc1 | 0.3 | -1.4
NC(=S)c1ccc(N2CCC(C(F)(F)F)CC2)nc1 | 0.8 | 1.5
Cc1ccc(S(=O)(=O)N(C)C[C@H]2Oc3ccc(NC(=O)Nc4ccc(F)cc4)cc3C(=O)N([C@@H](C)CO)C[C@@H]2C)cc1 | 0.4 | -4.4
C[C@@H]1CN([C@@H](C)CO)C(=O)c2cccc(NC(=O)c3ccncc3)c2O[C@H]1CN(C)Cc1ccccc1 | . | 1.5
Cc1noc(C(=O)N2CCCc3ccccc32)c1Cl | . | -3.3
CC1CCCC(C)N1CCCNC(=O)C1CCN(c2ncnc3c2sc2cccc(F)c23)CC1 (stereo not drawn) | 0.6 | 10.0
C[C@@H]1CN([C@H](C)CO)C(=O)c2cccc(NS(=O)(=O)c3ccc(Cl)cc3)c2O[C@@H]1CN(C)Cc1ccc2c(c1)OCO2 | . | -1.5
C[C@H](CO)N1C[C@H](C)[C@@H](CN(C)S(=O)(=O)c2ccc(Cl)cc2)Oc2ccc(NC(=O)C3CC3)cc2C1=O | 1.8 | 3.0
C[C@H](CO)N1C[C@H](C)[C@H](CN(C)Cc2ccccc2)Oc2ccc(NC(=O)Cc3ccccc3)cc2C1=O | 0.5 | 2.6

Laid out differently: results already given.
structure	A1 inh	BJeLR viability
C[C@@H]1CN([C@@H](C)CO)C(=O)c2cccc(NC(=O)c3ccncc3)c2O[C@H]1CN(C)Cc1ccccc1	.	1.5
Cc1noc(C(=O)N2CCCc3ccccc32)c1Cl	.	-3.3
CC1CCCC(C)N1CCCNC(=O)C1CCN(c2ncnc3c2sc2cccc(F)c23)CC1 (stereo not drawn)	0.6	10.0
C[C@@H]1CN([C@H](C)CO)C(=O)c2cccc(NS(=O)(=O)c3ccc(Cl)cc3)c2O[C@@H]1CN(C)Cc1ccc2c(c1)OCO2	.	-1.5
C[C@H](CO)N1C[C@H](C)[C@@H](CN(C)S(=O)(=O)c2ccc(Cl)cc2)Oc2ccc(NC(=O)C3CC3)cc2C1=O	1.8	3.0
C[C@H](CO)N1C[C@H](C)[C@H](CN(C)Cc2ccccc2)Oc2ccc(NC(=O)Cc3ccccc3)cc2C1=O	0.5	2.6

Next part.
SMILES | A1 inh | BJeLR viability
Cc1ccc(S(=O)(=O)N(C)C[C@@H]2Oc3c(NC(=O)c4nc5ccccc5s4)cccc3C(=O)N([C@H](C)CO)C[C@@H]2C)cc1 | . | 1.6
C[C@@H]1CN([C@@H](C)CO)C(=O)c2cc(NC(=O)C3CCCCC3)ccc2O[C@H]1CN(C)C(=O)Nc1ccccc1 | -0.5 | -4.4
COc1ccc2oc(-c3ccccc3)c(O)c(=O)c2c1 | 0.0 | -4.2
CC(C)CNC(=O)c1cc(-c2ccc(F)cc2)no1 | -1.5 | -1.4
CSc1nc(-c2ccccc2)c2cc(Cl)ccc2n1 | . | 1.3
Cc1cc(C(=O)Nc2cccc3c2O[C@@H](CN(C)S(=O)(=O)c2cccs2)[C@H](C)CN([C@@H](C)CO)C3=O)n(C)n1 | . | -4.3
CCOC(=O)c1nn(-c2ccc(C(F)(F)F)cc2)cc(Sc2nnc(C(F)(F)F)n2C)c1=O | -0.4 | -2.1
C[C@H](CO)N1C[C@H](C)[C@@H](CN(C)S(=O)(=O)c2ccc(F)cc2)Oc2ccc(NC(=O)NC3CCCCC3)cc2C1=O | 0.0 | 3.4
N#CCC(=O)N=Cc1ccc(Cl)cc1Cl | -0.6 | 2.4
C[C@H](CO)N1C[C@H](C)[C@H](CN(C)C(=O)NC2CCCCC2)Oc2ccc(NC(=O)C3CC3)cc2C1=O | -0.5 | -2.3
CCCOC(=O)CSc1nc(N)c(C#N)c(-c2ccc(C)cc2)c1C#N | 0.0 | -6.7
C[C@@H]1CN([C@H](C)CO)C(=O)c2cc(NC(=O)C3CCCCC3)ccc2O[C@@H]1CN(C)Cc1ccc(C(F)(F)F)cc1 | 0.6 | 2.5
C[C@H](CO)N1C[C@H](C)[C@H](CN(C)Cc2ccc(C(F)(F)F)cc2)Oc2ccc(NS(=O)(=O)c3ccc(F)cc3)cc2C1=O | 0.3 | 2.0
C[C@@H]1CN([C@H](C)CO)C(=O)c2cccc(N(C)C)c2O[C@@H]1CN(C)Cc1ccc(Cl)c(Cl)c1 | . | -6.0
C[C@@H]1CN([C@H](C)CO)C(=O)c2cccc(NS(=O)(=O)c3ccc(Cl)cc3)c2O[C@@H]1CN(C)S(C)(=O)=O | . | -1.1
N#CCN(CC#N)C(=O)c1cccc(C(=O)N(CC#N)CC#N)c1 | 1.2 | 3.1
Cc1noc(C)c1S(=O)(=O)Nc1cccc2c1O[C@H](CN(C)Cc1ccc(C(F)(F)F)cc1)[C@H](C)CN([C@H](C)CO)C2=O | . | -0.5
N#Cc1c(SCc2ccccc2Cl)nc2c(c1C(F)(F)F)CCc1occc1-2 | 0.8 | 2.4
C[C@@H]1CN([C@@H](C)CO)C(=O)c2cc(NS(=O)(=O)c3ccc(F)cc3)ccc2O[C@@H]1CN(C)Cc1ccc(C(=O)O)cc1 | 0.0 | 2.8
Cc1ccc(S(=O)(=O)N(C)C[C@@H]2Oc3ccc(NC(=O)CCCN(C)C)cc3C(=O)N([C@@H](C)CO)C[C@@H]2C)cc1 | 0.5 | -0.7
Cc1noc(C)c1NC(=O)Nc1ccc2c(c1)C(=O)N([C@H](C)CO)C[C@H](C)[C@@H](CN(C)S(=O)(=O)c1ccc(Cl)cc1)O2 | 0.6 | 5.0
Cc1ccc(CNC(=O)C2CCC(CNc3nc(=S)[nH]c4ccccc34)CC2)cc1 (stereo not drawn) | 2.0 | -0.6
C[C@@H]1CN([C@@H](C)CO)C(=O)c2cc(NC(=O)Cn3cnnn3)ccc2O[C@H]1CN(C)S(=O)(=O)c1ccc(Cl)cc1 | 0.6 | -0.3
CC(C)NC(=O)Nc1n[nH]c(Nc2ccc(Cl)cc2)n1 | 0.6 | -1.5
O=c1c(Cl)c(N2CCCCC2)cnn1-c1ccccc1 | -2.1 | 1.9
COc1ccc(NC(=O)Nc2ccc3c(c2)C(=O)N([C@@H](C)CO)C[C@@H](C)[C@H](CN(C)S(C)(=O)=O)O3)cc1 | 0.4 | 1.0
CCOC(=O)C(C)Oc1ccc2c(=O)c(-c3csc(C)n3)coc2c1 (stereo not drawn) | -5.0 | 8.1
C/C=C/C=C/C(=O)c1cc(C)c(O)c(C)c1O | 0.6 | -2.8
C[C@@H]1CN([C@H](C)CO)C(=O)c2cccc(NC(=O)Nc3ccccc3)c2O[C@H]1CN(C)S(=O)(=O)c1ccccc1 | . | -7.3
COc1ccc(S(=O)(=O)Nc2ccc3c(c2)C(=O)N([C@@H](C)CO)C[C@@H](C)[C@@H](CN(C)C(=O)NC2CCCCC2)O3)cc1 | -0.3 | -1.1
COc1ccc(NC(=O)C2CCCCN2/N=C/c2ccc(OC)c(OCC(C)C)c2)cc1OC (stereo not drawn) | -0.2 | -0.4
COc1ccc(NC(=O)Nc2cccc3c2O[C@H](CN(C)S(=O)(=O)c2cn(C)cn2)[C@H](C)CN([C@H](C)CO)C3=O)cc1 | . | -3.7
O=C(Nc1ccc(F)cc1)Nc1ccc2c(c1)C(=O)OC2 | -0.1 | 10.8
O=C(CN1C(=O)C2C3C=CC(C3)C2C1=O)OCCCc1ccccc1 (stereo not drawn) | . | -0.7
Cc1ccc(Sc2c(-c3ccccc3)nc3sccn23)cc1 | 0.2 | -1.2
CC(C)C[C@@H](NC(=O)OCC1c2ccccc2-c2ccccc21)C(=O)O | 0.0 | 5.9
CC1C/C(=C/c2ccncc2)C(=O)/C(=C/c2ccncc2)C1 (stereo not drawn) | . | 4.8
COc1ccc(NC(=O)N(C)C[C@@H]2Oc3ccc(NC(=O)NC4CCCCC4)cc3C(=O)N([C@@H](C)CO)C[C@@H]2C)cc1 | -1.2 | -3.0
C[C@@H]1CN([C@H](C)CO)C(=O)c2cccc(NC(=O)NC3CCCCC3)c2O[C@@H]1CN(C)S(=O)(=O)c1cccs1 | . | 1.0
Cc1ccc(OCC(=O)O)c(C)c1 | -1.7 | 4.0
COc1ccc(NC(=O)Nc2ccc3c(c2)C(=O)N([C@H](C)CO)C[C@H](C)[C@@H](CN(C)S(=O)(=O)c2ccc(Cl)cc2)O3)cc1 | 1.5 | -3.2
COc1ccc2[nH]c3c(=O)n(CCN4CCC(Cc5ccccc5)CC4)cnc3c2c1 | -0.6 | -0.4
Cc1ccc(SCCNC(=O)c2ccc3ccccc3n2)cc1 | -1.3 | 0.5
C[C@H]1CN([C@@H](C)CO)C(=O)c2cc(NC(=O)Nc3ccccc3)ccc2O[C@H]1CN(C)CC1CCCCC1 | 0.4 | 6.5
CC(C)NC(=O)N(C)C[C@H]1Oc2ccc(NC(=O)Nc3ccc(C(F)(F)F)cc3)cc2C(=O)N([C@@H](C)CO)C[C@@H]1C | 0.2 | 3.2

An excerpt from above in order of their number in A1 inh, ascending:
| SMILES | A1 inh |
| --- | --- |
| Cc1ccc(OCC(=O)O)c(C)c1 | -1.7 |
| Cc1ccc(SCCNC(=O)c2ccc3ccccc3n2)cc1 | -1.3 |
| O=C(Nc1ccc(F)cc1)Nc1ccc2c(c1)C(=O)OC2 | -0.1 |

Later entries.
SMILES | A1 inh | BJeLR viability
CC(C)NC(=O)N(C)C[C@@H]1Oc2ccc(NC(=O)c3ccncc3)cc2C(=O)N([C@@H](C)CO)C[C@H]1C | 0.8 | -1.6
C[C@@H]1CN([C@H](C)CO)C(=O)c2cccc(NC(=O)Nc3ccc4c(c3)OCO4)c2O[C@@H]1CN(C)C(=O)Nc1ccc(C(F)(F)F)cc1 | . | -3.4
Cc1ccc2c(c1)C1CN(C)CCC1N2C(=O)Cn1nnc(-c2ccccc2C)n1 (stereo not drawn) | . | 3.5
Cc1ccc(NC(=S)NCCCN2CCN(c3cc(Cl)ccc3C)CC2)c(Cl)c1 | . | -2.1
Cc1c(Cc2ccccc2)c(=O)oc2cc(OC(C)C)ccc12 | -0.9 | 6.4
CC(C)CNC(=O)NC1(C(F)(F)F)Oc2ccc(Cl)cc2O1 (stereo not drawn) | . | -5.3
Cc1noc(C)c1S(=O)(=O)Nc1ccc2c(c1)C(=O)N([C@@H](C)CO)C[C@@H](C)[C@H](CN(C)S(=O)(=O)c1cccs1)O2 | 0.4 | -7.6
C[C@@H]1CN([C@H](C)CO)C(=O)c2cccc(NS(=O)(=O)c3cn(C)cn3)c2O[C@@H]1CN(C)S(=O)(=O)c1cccs1 | . | -0.7
